# Screens: PubChem BioAssay, Broad Institute
# Beta cell apopt = inhibitors of cytokine-induced beta cell apoptosis, primary screen, luminescence; INS-1E cytokine-induced death, ATP luminescence, 48 h; percent of positive-control rescue, neutral wells zero; protection from apoptosis, % (test concentration not listed); hit rate 0.8% among 300,000; AID 435005, 2010;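 active = all replicates at 75% or more, or half of them and the mean; inconclusive = half reach 75% but not the mean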;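 note: 0% = cytokine-treated negative control wells and 100% = positive control rescue; higher means more ATP so stronger rescue from cytokine killing; wells of about 40 µL received 100 nL stock; the first replicate is given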
# FGF22 binding = binders of human FGF22 protein, primary screen, FGF22 synaptogenesis inhibitor project, biophysical, thermal shift, single point; recombinant FGF22 thermal shift, SYPRO orange fluorescence; percent of sucrose octasulfate shift, DMSO zero; calls only at 9.99 µM; hit rate 1.5% among 340,000; AID 651658, 2012;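 active = melting point raised past a set limit in the mean and every replicate; inconclusive = no clear call; three in four hits are not shown here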
# Target sequence (Q9HCT0 whole entry, looked up): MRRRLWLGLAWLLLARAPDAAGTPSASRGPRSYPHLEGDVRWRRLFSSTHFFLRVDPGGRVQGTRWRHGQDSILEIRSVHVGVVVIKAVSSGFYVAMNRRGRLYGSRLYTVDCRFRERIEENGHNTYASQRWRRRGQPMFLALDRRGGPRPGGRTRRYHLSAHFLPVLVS
# RanGTP-Imp inh = inhibitors of RanGTP-importin-beta interaction, primary screen, biochemical, FRET, CFP-Ran, YFP-importin-beta, homogeneous; hit rate 1.1% among 300,000; cell-free CFP-Ran/YFP-importin-beta FRET ratio; AID 2216, 2009; Ran GTPase (GTP-bound) - importin-beta complex; inhibition, % (test concentration not listed);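 active = most replicates above 15%; inconclusive = exactly half above 15%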;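 note: 0% = DMSO wells and 100% = Ran loaded with GDP instead of GTP; wells of about 40 µL received 100 nL stock; the first replicate is given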
# AF4-AF9 inh = inhibitors of AF4 peptide binding to AF9, primary screen, biochemical, AlphaScreen, biotin-AF4 peptide, FLAG-AF9, single point; inhibition, % at 10 µM; hit rate 0.47% among 350,000;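 active = every replicate reaching a set inhibition limit, whatever the replicate mean, cut at about 25% in these data; inconclusive = mean inhibition reaches that limit but some replicates miss it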;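 note: 0% = plate neutral control median and 100% = total signal loss; the record names both 10 and 1 µM as test concentration; the first replicate is given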
# Target sequence (P42568 whole entry, looked up): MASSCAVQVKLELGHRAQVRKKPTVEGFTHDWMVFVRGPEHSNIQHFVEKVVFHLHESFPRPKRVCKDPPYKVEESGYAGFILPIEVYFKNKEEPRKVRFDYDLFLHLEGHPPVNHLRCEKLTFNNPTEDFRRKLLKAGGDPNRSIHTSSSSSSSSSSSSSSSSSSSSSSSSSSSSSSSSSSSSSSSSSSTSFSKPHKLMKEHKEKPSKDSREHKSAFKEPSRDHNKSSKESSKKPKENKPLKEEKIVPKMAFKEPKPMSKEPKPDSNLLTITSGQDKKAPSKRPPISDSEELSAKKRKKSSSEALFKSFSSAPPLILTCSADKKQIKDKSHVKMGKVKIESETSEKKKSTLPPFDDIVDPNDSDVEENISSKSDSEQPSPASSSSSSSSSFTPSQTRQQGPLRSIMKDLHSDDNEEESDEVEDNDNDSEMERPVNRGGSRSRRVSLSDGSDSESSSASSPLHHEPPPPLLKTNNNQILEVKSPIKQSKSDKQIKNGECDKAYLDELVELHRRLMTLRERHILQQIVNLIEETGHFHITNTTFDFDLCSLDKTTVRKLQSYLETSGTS
# Calb FLC = C. albicans growth inhibition with fluconazole, primary screen, CaCi-2 strain, Alamar Blue fluorescence. growth inhibition, % (concentration not given with the values). hit rate 0.57% among 300,000. C. albicans CaCi-2 (fluconazole-resistant clinical isolate) + fluconazole, 48 h;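 active = most replicates above 75%; inconclusive = exactly half above 75%; inactive = most below 75%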;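 note: all wells also contain fluconazole at 8 µg/ml as a sub-toxic cotreatment; 0% = median of DMSO wells and 100% = median of geldanamycin control wells; wells of about 8 µL received 7.5 nL stock; the first replicate is given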
# rRNA inh HTS = reduced GFP signal of wild-type E. coli, primary screen, bacterial rRNA inhibitor project, GFP/RFP fluorescence, OD600, single point | E. coli WT GFP vs humanized-ribosome RFP mutants, 24 h; stronger effect = lower value; DMSO median 0, no signal -100 | GFP signal change (wild-type ribosome), % (no concentration beside the values) | hit rate 1.6% among 350,000 | AID 720706, 2013;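 active = significant combined selectivity score with lowered wild-type GFP, culture density cut under 30%, mutant RFP and density less affected; inactive = any of these conditions unmet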; note: one replicate is shown; some compounds called inactive have numbers as strong as hits
# T cruzi repl = inhibitors of intracellular T. cruzi growth, primary screen, luminescence, NIH3T3 host cells | T. cruzi beta-gal in NIH3T3, 90 h | AID 1885, 2009 | hit rate 1.4% among 300,000 | inhibition, % (no concentration beside the values);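 active = mean inhibition across valid replicates above about 55%, limit read from the data; inconclusive = mean below that limit but half or more replicates reach it; inactive = mean below it, under half of replicates reach it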;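 note: signal also drops with host cell toxicity which is not excluded here; 0% = plate median of DMSO wells and 100% = zero luminescence signal; higher percent means less beta-gal luminescence so fewer parasites; stock transfer was 50 nL into about 50 µL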
# ALR inh = inhibitors of human ALR sulfhydryl oxidase, primary screen, biochemical, H2O2 detection, HRP-luminol luminescence, single point. FAD-linked sulfhydryl oxidase ALR (Homo sapiens), P55789. purified ALR, DTT oxidation. inhibition, % (concentration not given with the values). hit rate 3.8% among 290,000. AID 485317, 2010;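 active = mean and each replicate at 75% or more; inconclusive = only one of the two met; inactive = neither met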;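 note: stock transfer was 7.5 nL into about 7.5 µL; 0% = neutral wells and 100% = wells with inactivated enzyme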
# Target sequence (P55789 whole entry, looked up): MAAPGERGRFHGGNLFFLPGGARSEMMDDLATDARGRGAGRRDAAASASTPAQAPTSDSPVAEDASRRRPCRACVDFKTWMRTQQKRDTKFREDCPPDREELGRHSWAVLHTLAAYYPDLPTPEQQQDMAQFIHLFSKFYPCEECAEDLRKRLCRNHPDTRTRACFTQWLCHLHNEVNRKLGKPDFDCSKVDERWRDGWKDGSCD
# rRNA inh HTS OD600 = recorded beside rRNA inh HTS, whose call it bears; OD600 change, %; measured here: OD600 growth;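 optical density of the mix in the first replicate; 0 = DMSO median and -100 = no signal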
# rRNA inh HTS RFP = recorded beside rRNA inh HTS, whose call it bears; RFP signal change, %; measured here: RFP humanized mutant strains;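 first replicate; 0 = DMSO median and -100 = no signal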
# * = called active by the depositor; i = inactive; ? = inconclusive; . = not tested or not shown; + = active, no number. Not all compounds are listed; rates above refer to the full screens.
Structure,Beta cell apopt,FGF22 binding,RanGTP-Imp inh,AF4-AF9 inh,Calb FLC,rRNA inh HTS,rRNA inh HTS OD600,rRNA inh HTS RFP,T cruzi repl,ALR inh
CCOC(=O)N1N=C(c2ccc(OC)cc2)CC1(O)C(F)(F)F (stereo not drawn),-8,i,5.7,-3.8,-33,11,13,2.5,-13,-15
Cc1ccc(CSC2=Nc3ccccc3C3=NC(=O)CN23)cc1,1,i,-3.8,-2.8,-12,-46,-79,15,20,-1
COc1ccc([C@H]2CC(=O)C=C(c3cc(C)ccc3F)C2)cc1,-2,i,.,-39,.,-22,-36,-18,.,-5
OCC1(Cc2ccc(Cl)cc2)CCN(Cc2ccc3nsnc3c2)CC1,3,i,?,3.4,3,-23*,-18*,2.8*,30,-1
CCCCOc1ccc(C(=O)NCC(=O)NCC(c2ccc(F)cc2)N2CCOCC2)cc1 (stereo not drawn),0,i,2.7,-11,-8,-3,-5,2.1,-3,2
CCC(C)(C(=O)NC1CCCC1)N(C(=O)c1ccccn1)c1ccccc1 (stereo not drawn),-6,.,-1.7,.,-4,.,.,.,-8,-11
COc1ccc(Cl)cc1NC(=S)NCCO,0,i,6.4,-1.1,-7,7,8,-0.4,-8,-11
COc1cc(/C=N/NC(=O)c2cc(-c3ccc4c(c3)OCO4)n[nH]2)ccc1O,42,i,-2.4,-1.8,-7,-26*,1.5*,-2.1*,6,91*
Cc1ccc(Sc2cnn(-c3ccccc3)c(=O)c2Cl)cc1,6,.,4.9,.,-4,.,.,.,-17,62
CC(=O)CCC(=O)N1CCC(n2nccc2NC(=O)c2ccccc2C)CC1,1,i,5.6,-1.2,25,16,21,2.2,-1,-3
CCn1c(=Nc2ccc(N3CCOCC3)cc2)ccc2ccccc21,-3,.,3.0,.,-23,.,.,.,11,67
COc1ccc(-c2cc(N3CCCC3)n3ncnc3n2)cc1,8,.,-1.3,.,0,.,.,.,8,3
CS(=O)(=O)N1CCN(c2ccccc2NC(=O)c2cccs2)CC1,-14,.,0.8,.,3,.,.,.,12,-11
Cc1cccc(OCC(=O)OC(C)C(=O)Nc2ccc(Cl)cn2)c1 (stereo not drawn),-2,i,-6.9,-20,10,3,-5,-0.1,-12,.
NCCCn1c(C(=O)c2cc(Cl)c(N)c(Cl)c2)c2ccccc2[n+]1[O-],-9,i,-0.1,7.2,4,-3,-8,6.5,-1,32
O=c1[nH]c(SCCOc2ccccc2)nc2ccccc12,8,.,-2.4,.,29,.,.,.,5,-7
CCOc1ccc(NC(=O)CSc2nnc(Cc3cccn3C)n2-c2ccc(F)cc2)cc1,0,i,-2.6,7.2,-5,-3,-4,0.4,14,.
CC(C#CCN1CCCCC1)OCCOCc1ccccc1 (stereo not drawn),-7,.,-2.9,.,-5,.,.,.,11,-11
CC(C)c1ccc2[nH]c3nc(SCC(=O)NC4CC4)nnc3c2c1,5,i,-1.6,1.4,-4,-4,10,2.2,10,.
S=C(NCCCc1ccccc1)Nc1ccc(Br)cc1,2,i,.,-1.8,-34,-53,-78,-16,.,-3
CCOC(=O)c1c(-c2ccccc2)oc2ccc(OCC(O)CN(C)C)cc12 (stereo not drawn),.,i,-2.7,14,94*,-59,-82,-25,33,-9
Cc1nc(N)sc1N=Nc1c(C)n(C)n(-c2ccccc2)c1=O,-1,i,-3.7,-2.4,1,6,0,8.1,-6,45
Cc1ccccc1C(=O)N1CCN(c2ccc(N3CCOCC3)nn2)CC1,1,i,2.7,0.7,3,8,7,-2.0,1,-1
CCCCCCNC(=O)CCNC(=O)c1cc(OC)c(OC)c(OC)c1,-2,.,-2.7,.,1,.,.,.,1,3
CC(C)N(Cc1cn(C)nc1-c1cccc(Cl)c1)CC1CCC(=O)N1 (stereo not drawn),-11,i,2.8,-7.5,3,3,5,-7.1,0,.
Cc1cccc(Nc2ccccc2C(=O)OCC(=O)NCc2ccco2)c1C,-10,.,1.3,.,4,-7,-15,1.4,2,30
Cn1nnnc1SCC(=O)c1cccs1,0,.,-3.9,.,-1,.,.,.,-8,47
Cc1ccc(S(=O)(=O)NCC(=O)OCc2ccccc2)cc1,-5,i,-3.6,-2.0,-1,-9,-12,4.2,-3,-32
Cc1c(C(=O)Nc2ccc3c(c2)OCCO3)cnn1C,6,i,3.7,0.1,-3,13,10,-2.2,-13,-5
Cc1ccc(NC(=S)NNC(=O)c2ccccc2O)c(C)c1,18,i,0.0,3.6,47,-52,-73,-21,-24,29
O=c1c2ccccc2c(-c2ccccc2)nn1-c1cc(Cl)ccc1[N+](=O)[O-],-10,.,0.7,.,9,.,.,.,6,-6
COc1ccc(Cl)cc1NC(=O)CN(C)Cc1cccs1,1,i,2.8,-12,-21,-20,-42,-6.7,3,-7
O=C(CSc1nnc2c(n1)[nH]c1ccccc12)NC1CCCCC1,-4,i,1.4,-0.4,5,4,8,-0.8,1,.
CCOC(=O)c1cc2c(C)n(-c3ccc(N(C)C)cc3)c(C)c2cc(C(=O)OCC)c1=O,3,.,?,.,-4,.,.,.,12,21
O=c1[nH]cccc1-c1nc2ccccc2n1Cc1cccc(Cl)c1,-3,i,-2.5,-1.8,1,0,-1,0.9,5,-3
CCN1CCN(C(=O)CCc2ccc(S(=O)(=O)NCCc3ccccc3)cc2)CC1,-6,.,?,.,4,.,.,.,43,0
CN1CCCN(CC(O)COCc2cccs2)CC1 (stereo not drawn),-2,.,-0.3,.,0,.,.,.,-13,1
Cc1ccc(S(=O)(=O)NC(=O)c2cc(C)n(C3CC3)c2C)cc1,-4,i,-1.1,-0.7,-6,-1,-1,3.2,-15,41
O=C1OC(OC2CCCCC2)(c2ccccc2)c2ccccc21 (stereo not drawn),4,i,-0.4,-0.3,-10,-22*,-2.3*,1.6*,-4,.
COc1ccc(OC)c(/C=C/C(=O)OCC(=O)c2c(N)n(C)c(=O)n(C)c2=O)c1,-5,i,3.1,-2.1,4,4,7,0.7,2,0
CSCCCN1CC[C@@H](N2CCN(c3ccccc3F)CC2)[C@H](O)C1,.,i,5.5,-0.2,-3,.,.,.,-1,3
Cc1cc(-c2ccccc2)c2c(n1)sc1c(O)cc(=O)[nH]c12,-1,i,8.6,-2.3,7,-7,5,4.2,-6,.
CC(OC(=O)C1=COCCO1)C(=O)Nc1cccc(S(=O)(=O)N2CCOCC2)c1 (stereo not drawn),3,i,0.1,2.8,1,7,2,-11,4,-5
CCCCCC(=O)N1CC2(CC(c3cccc(NC(=O)CC)c3)=NO2)C[C@H]1C(N)=O (stereo partly drawn),-8,i,-3.0,3.0,-8,5,12,1.4,-7,-18
COCCNC(=O)C(=O)NCC1OCCN1S(=O)(=O)c1ccc(F)cc1 (stereo not drawn),-8,i,-0.5,-1.4,2,2,3,-1.8,-5,-12
Cc1cc(C)n2nc(SCC(=O)N3CCc4ccccc43)nc2n1,-8,.,2.2,.,3,.,.,.,-7,-15
Cc1ccc(O)c(NC(=S)NC(=O)/C=C/c2ccccc2)c1,-5,i,?,-4.3,13,-14,-8,-2.4,-2,-14
CCN1CCN(C(=O)c2ccc(Cl)c(S(=O)(=O)N3CCOCC3)c2)CC1,4,i,-3.7,-44,0,27,6,0.5,-8,-4
Cc1ccc(NC(=O)C23CCC(C)(C(=O)[C@H]2Br)C3(C)C)cc1 (stereo partly drawn),4,i,1.7,-2.2,7,-9,1,3.0,8,.
O=C(COC(=O)c1ccc(Cl)c(S(=O)(=O)N2CCCC2)c1)NC1CCCCC1,-4,i,2.6,-1.3,24,-18,-19,1.3,-15,-9

# Next part.
Structure,Beta cell apopt,FGF22 binding,RanGTP-Imp inh,AF4-AF9 inh,Calb FLC,rRNA inh HTS,rRNA inh HTS OD600,rRNA inh HTS RFP,T cruzi repl,ALR inh
CN(C)/N=C/c1ccc(N2CCOCC2)cc1,0,i,0.8,1.6,0,-17*,-11*,4.6*,-11,.
Cc1ccc(-c2ccc(CCC(=O)O)n2NC(=O)c2cccs2)cc1,2,.,2.9,.,10,.,.,.,-11,99*
CCC(C)C(NC(N)=O)C(=O)NC1CCC(C)CC1 (stereo not drawn),2,.,-2.5,.,-9,.,.,.,6,0
COCCN(C(=O)COC(=O)/C=C/c1ccco1)c1c(N)n(Cc2ccccc2)c(=O)[nH]c1=O,-7,i,1.8,1.3,8,7,20,1.4,-37,5
O=C(O)Cc1ccc(NC(=O)c2ccc3c(c2)C(=O)N(CC2CCCO2)C3=O)cc1 (stereo not drawn),5,i,-1.3,-0.7,-8,11,14,1.0,4,-4
Cc1ccc(S(=O)(=O)N2CCC(=O)N(C(COCc3ccc(Cl)cc3Cl)Cc3ccccc3)CC2)cc1 (stereo not drawn),19,i,3.6,-3.2,-67,2,6,7.4,75*,4
O=C(Cn1nnc2ccccc21)OCc1ccccc1,8,i,1.7,-0.7,1,6,8,1.6,-6,-2
Cc1cccc(C(=O)Nc2c3c(nn2C(C)(C)C)CS(=O)(=O)C3)c1,-3,i,0.2,0.2,0,1,12,-1.6,10,-5
CC(/C=C/c1ccccc1)=N\NC(=O)c1cc(C)nc2ccccc12,6,i,3.9,-1.4,1,5,3,7.5,-12,-5
CCOC(=O)CN1CC23C=CC(O2)C(C(=O)Nc2ccc(OCC)cc2)C3C1=O (stereo not drawn),.,i,0.6,-4.3,-2,-1,1,-4.4,-3,-17
S=c1[nH]nc(Cc2ccc(Br)cc2)n1/N=C/c1ccc(Cl)cc1,4,i,-0.7,-2.4,11,-15,-10,-1.6,-2,-4
CCOc1ccc(C(=O)NCc2ccc3c(c2)OCO3)cc1,-2,i,-5.6,-1.2,-19,-3,1,2.8,-6,5
COCCNC(=O)CCc1nnc2ccc(N3CCC(C)CC3)nn12,-7,+,2.8,-0.5,-8,2,12,-2.1,-9,6
COc1ccc(NC(=O)C2CCCCN2N)cc1OC (stereo not drawn),3,.,-1.2,.,-6,.,.,.,3,-13
Cc1nc(-c2cccc(NC(=O)c3ccc(-n4cccn4)cc3)c2)cs1,5,i,.,0.0,.,-17,-6,-0.8,.,.
CC(=O)N/C(=C\c1ccccc1)C(=O)OCC(=O)N(CC(C)C)c1c(N)n(Cc2ccccc2)c(=O)[nH]c1=O,-9,i,2.2,-0.2,.,14,11,6.3,-10,9
Cc1ccc(C(C(=O)NC2CCCCC2)N(Cc2cccnc2)C(=O)C2COc3ccccc3O2)o1 (stereo not drawn),3,.,0.1,.,11,.,.,.,33,-3
